# Bioassay records as filed in PubChem.
# CBX7 AlphaScr: CBX7 chromodomain binding inhibitors, primary screen, biochemical, AlphaScreen; AlphaScreen His6-CBX7 / biotin-H3K27me3 peptide binding; active compounds read low; normalised signal (fraction of DMSO) (concentration not given with the values); AID 1224903, 2016; actives 1.1% (n = 66,000); in the data active means normalised signal below about 0.5;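 further: 100 nL library stock added to about 20 µL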
# Target sequence (O95931 whole entry, looked up): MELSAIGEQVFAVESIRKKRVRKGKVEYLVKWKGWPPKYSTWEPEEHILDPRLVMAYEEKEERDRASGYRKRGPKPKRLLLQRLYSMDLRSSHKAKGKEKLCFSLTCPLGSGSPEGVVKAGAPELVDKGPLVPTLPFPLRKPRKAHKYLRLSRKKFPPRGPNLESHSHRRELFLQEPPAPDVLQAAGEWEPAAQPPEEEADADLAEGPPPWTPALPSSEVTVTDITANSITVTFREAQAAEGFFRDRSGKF
# CBX7 AlphaScr z-score: second read-out of CBX7 AlphaScr, no call of its own (marks repeat the call); z-score; measured here: z-score of CBX7 signal; some inactives read as strong as hits; reference of the scale not given here;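 same signal on another scale; lower means less binding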
# An asterisk follows results filed as active; & = joins results of further samples. Not all compounds are listed; the hit share may differ from the screen's.
# Preview:
canonical_smiles | CBX7 AlphaScr z-score | CBX7 AlphaScr
COc1ccccc1CNC(=O)c1oc2ccc(S(=O)(=O)N3CCCCC3)cc2c1C | -0.125 | 0.889
c1ccc(C(Sc2nnc(COc3ccc(C4CCCCC4)cc3)n2-c2ccccc2)c2ccccc2)cc1 | 0.536 | 1.02
CCN1CCN(C(=O)c2cn(CC)c(=O)c3cc(OC)c(OC)cc23)CC1 | 1.51 | 1.1
Cc1ccc(C)c(N(C)C(=O)Cc2c(C(=O)O)[nH]c3ccc(Cl)cc23)c1 | 1.53 | 1.16

# Results (from the top)
canonical_smiles | CBX7 AlphaScr z-score | CBX7 AlphaScr
COc1ccccc1CNC(=O)c1oc2ccc(S(=O)(=O)N3CCCCC3)cc2c1C | -0.125 | 0.889
c1ccc(C(Sc2nnc(COc3ccc(C4CCCCC4)cc3)n2-c2ccccc2)c2ccccc2)cc1 | 0.536 | 1.02
CCN1CCN(C(=O)c2cn(CC)c(=O)c3cc(OC)c(OC)cc23)CC1 | 1.51 | 1.1
Cc1ccc(C)c(N(C)C(=O)Cc2c(C(=O)O)[nH]c3ccc(Cl)cc23)c1 | 1.53 | 1.16
CC(=O)N1CCc2cc(S(=O)(=O)NCC(=O)NCc3ccc(F)cc3)ccc21 | 0.596 | 1.02
Clc1ccc(-c2nnc(-c3cccs3)c3nocc23)cc1 | -2.3 | 0.765
O=C(Cn1cc(S(=O)(=O)c2ccccc2)c(=O)c2ccccc21)Nc1ccc(F)cc1 | -1.35 | 0.906
COc1ccc(Br)cc1CN1C(=O)c2ccccc2C1C(=O)NCCCN1CC(C)CC(C)C1 (configuration not stated) | 0.825 | 1.02
COc1ccc(NC(=O)CCc2c(C)nc3cc(-c4cccc(F)c4)nn3c2C)c(OC)c1 | -0.23 | 0.991
Cc1ccc(C)c(Cn2c(C3CC(=O)N(c4ccccc4F)C3)nc3ccccc32)c1 (configuration not stated) | -0.00625 | 0.999
Cc1c(C(=O)NC2CCCCC2)oc2ccc(S(=O)(=O)N3CC(C)CC(C)C3)cc12 (configuration not stated) | -2.03 | 0.799
CCCCN(CCCC)CCCNC(=O)c1cc2sc(Cl)cc2n1C | -2.95 | 0.82
COc1ccc(NC(=O)CC(c2ccc3c(c2)OCO3)c2ccccc2OC)cc1 (configuration not stated) | 0.21 | 1.03
COc1ccc2cc(C#N)c(Nc3ccc(C)cc3Cl)nc2c1 | 3.87 | 1.18
Cc1nc2c(C(=O)NCC3CCCO3)cnn2c(C)c1Cc1ccc(F)cc1 (configuration not stated) | 0.0484 | 1
Cc1ccc(-c2nc3cnccn3c2Nc2ccc3c(c2)OCO3)cc1 | -4.42 | 0.648
Cc1nc2cc(-c3ccc(Cl)cc3)nn2c(C)c1CCC(=O)NCCCc1ccccc1 | 0.142 | 1.01
CCC(C)NC(=O)c1cc2n(n1)C(C(F)(F)F)CC(c1ccc3c(c1)OCO3)N2 (configuration not stated) | -1.26 | 0.926
CN1CCN(C(=O)c2ccc3c(c2)N(Cc2ccccc2)CCS3)CC1 | -0.261 | 0.803
COc1cc2c(cc1OC)C1C(C(=O)N(C)Cc3ccccc3)c3ccccc3C(=O)N1CC2 (configuration not stated) | -0.129 | 0.964
CCOC(=O)c1c(NC(=O)COc2ccc3ccccc3c2)sc2c1CCCC2 | 1.2 | 1.13
Cc1ccc(-c2nc(CSCC(=O)NCCN3CCOCC3)c(C)o2)cc1 | 0.0395 | 1
CCOC(=O)C1CCN(C(=O)c2cc3c(-c4ccc(OC)c(OC)c4)nn(C)c3s2)CC1 | -1.43 | 0.949
Cc1[nH]c2c(Cl)ccc(Cl)c2c1CCNC(=O)Cn1nc(C)c2ccccc2c1=O | 1.34 | 1.07

# Reprinted from the results shown, four compounds:
canonical_smiles | CBX7 AlphaScr z-score | CBX7 AlphaScr
CCOC(=O)c1c(NC(=O)COc2ccc3ccccc3c2)sc2c1CCCC2 | 1.2 | 1.13
Cc1ccc(-c2nc(CSCC(=O)NCCN3CCOCC3)c(C)o2)cc1 | 0.0395 | 1
CCOC(=O)C1CCN(C(=O)c2cc3c(-c4ccc(OC)c(OC)c4)nn(C)c3s2)CC1 | -1.43 | 0.949
Cc1[nH]c2c(Cl)ccc(Cl)c2c1CCNC(=O)Cn1nc(C)c2ccccc2c1=O | 1.34 | 1.07

# Additional compounds.
canonical_smiles | CBX7 AlphaScr z-score | CBX7 AlphaScr
O=C(c1cnn(-c2ccccc2)c1-n1cccc1)N1CCC(C(=O)N2CCCCC2)CC1 | 2.78 | 1.07
O=C(c1cc2c(s1)-c1ccccc1OC2)N1CCN(c2cccc(C(F)(F)F)c2)CC1 | 2.62 | 1.09
O=C(CN1C(=O)CSc2ccc(S(=O)(=O)N3CCCCC3)cc21)NC1CCCCCC1 | 0.705 | 1.02
CCCC(CCC)C(=O)Nc1ccc2c(c1)N(C(=O)CN1CCOCC1)c1ccccc1CC2 | -1.4 | 0.882
Cc1ccc(-n2cc(-c3ccc4c(c3)OCO4)nc2SCC(=O)Nc2cc(C)cc(C)c2)cc1 | -3.85* | 0.494*
Cc1ccc(-c2cc3cc(C)c(C#N)c(N4CCCCCC4)n3c2)cc1 | -0.613 | 0.978
COc1ccc(-c2noc(COc3ccc(C)cc3Br)n2)cc1 | 0.807 | 1.68
CCCCNC(=O)c1ccc2c(c1)N(Cc1cc(C)ccc1C)C(=O)CS2 | -0.671 | 0.969
Cn1cc(CCC(=O)NCCCN2CCOCC2)c2ccccc21 | 1.89 | 1.05
Cc1cc2nc(-c3cc(N)ccc3Cl)oc2cc1C | 1.6 | 1.05
O=C1C(O)CC2c3ccccc3CC3(CCCC3)N12 (configuration not stated) | -0.26 | 0.988
CC(C)N(CCNC(=O)C1CCC(=O)N1Cc1ccccc1Cl)Cc1ccccc1 (configuration not stated) | 1.47 | 1.05
O=C1CCCc2nc(Nc3nc4ccccc4s3)ncc21 | 0.949 | 1.05
COc1ccc(NC(=O)COc2cc(C)ccc2C(C)(C)C)c(OC)c1 | -0.129 | 0.944
Cc1ccc(CSc2nc3ccncc3n2CC(=O)N(C)c2ccccc2)cc1 | -0.0727 | 0.982
Cc1cccc(-c2cc(C(=O)NCCCN3CCOCC3)c3ccccc3n2)c1 | 3.03 | 1.24
CCCCNC(=O)CN1C(=O)COc2ccc(C)cc21 | 2.08 | 1.12
Cc1c(C(=O)Nc2ccccc2Br)oc2ccc(S(=O)(=O)N3CCOCC3)cc12 | -0.0603 | 0.996
O=C(NCCCN1CCOCC1)c1ccc2c(c1)N(Cc1ccc(F)cc1)CCS2 | -4.16 | 0.846
Cc1ccc(N2C(=O)c3ccccc3C2Nc2ccccc2F)nc1 (configuration not stated) | -1.86 | 0.861
O=C(COc1cccc(Cl)c1)Nc1ccc(S(=O)(=O)Nc2ncccn2)cc1 | -0.138 | 0.996
C=CCN(CC=C)S(=O)(=O)c1ccc(C(=O)Nc2nnc(-c3cc(OC)cc(OC)c3)o2)cc1 | -0.579 | 0.94
CC(C)c1ccc(C(=O)Nc2cccc(-c3nc4ncccc4o3)c2)cc1 | -0.613 | 0.909
O=C(NCCN1CCOCC1)C1CC(c2ccc(F)cc2)=NO1 (configuration not stated) | 1.82 | 1.04
COc1ccc(-c2nnc(OCC3CCCO3)c3ccccc23)cc1 (configuration not stated) | -1.78 | 0.837
CCc1ccc(NC(=O)CNC(=O)c2nn(-c3ccc(OC)c(OC)c3)c(=O)c3ccccc23)cc1 | 0.182 | 1.01
CN(CCNC(=O)CN1CCN(Cc2ccccc2Cl)C1=O)Cc1ccccc1 | 1.03 | 1.08
O=C(Cn1nnc(-c2ccc3c(c2)OCO3)n1)N1CCOCC1 | 1.82 | 1.07
Cn1c(=O)c(Cc2ccc(F)c(F)c2)nc2ccccc21 | -0.262 | 0.975
Cc1cccc(-c2noc(CN(C(=O)C(c3ccccc3)c3ccccc3)C(C)C)n2)c1 | -1.99 | 0.912
COCCn1c(C(C)c2ccc(CC(C)C)cc2)nc2ccccc21 (configuration not stated) | 0.21 | 1.02
CCCCn1c(CCCNC(=O)c2cccc(C)c2)nc2ccccc21 | 2.99 | 1.19
COc1ccc(C2=NOC(C(=O)NCc3ccc(F)cc3)C2)cc1OC (configuration not stated) | 0.259 | 1.01
CCOc1ccc(NC(=O)c2csc3c2CCC(C)C3)cc1 (configuration not stated) | -0.872 | 0.978
Cc1ccc(-c2noc(COc3ccc(Cl)cc3Cl)n2)cc1 | 1.95 | 1.27
COc1ccccc1-c1cc(C(=O)Nc2cccnc2Cl)no1 | -0.616 | 0.977
COC(=O)c1cccc(NC(=O)c2c(-c3ccccc3Cl)noc2C)c1 | 1.02 | 1.05
COc1ccc(-c2cc(C(=O)N3CCOCC3)c3ccccc3n2)cc1 | 2.02 | 1.24
COc1cccc(CNC(=O)C2CCN(C(=O)c3sccc3-n3cccc3)CC2)c1 | 2.49 | 1.05
COc1ccc(-c2nc(CN3CCC(C(=O)NCCCOC(C)C)CC3)c(C)o2)cc1OC | 1.65 | 1.11
Cc1ccc(OCC(O)CN2CCC(Cc3ccccc3)CC2)c(C)c1 (configuration not stated) | 0.43 | 1.03
O=C(CN1C(=O)COc2ccc(S(=O)(=O)N3CCCCCC3)cc21)NCc1ccccc1Cl | 1.91 | 1.15
Cc1cc2nc(-c3cccc(NC(=O)c4ccc(Br)cc4)c3)oc2cc1C | 2.92 | 1.15
COc1ccc(-c2noc(COc3ccc(Cl)cc3C)n2)cc1 | 0.681 | 1.11
CCOC(=O)C1CCCN(C(=O)CNC(=O)Cn2ccc3ccccc3c2=O)C1 (configuration not stated) | 2.19 | 1.26
CC1(C)Cc2c(C#N)c(NCCN3CCOCC3)nc(-c3ccccc3)c2CO1 | -0.63 | 0.947
CCC(=O)N1CCc2cc(S(=O)(=O)N3CC(=O)N(CCc4ccccc4)C(=O)C3)ccc21 | 1.64 | 1.22
CCc1ccc(Nc2nnc(C(C)(C)C)c(=O)[nH]2)cc1 | 0.752 | 1.37
Cc1cccc(OCc2nc(C#N)c(N3CCOCC3)o2)c1 | -1.02 | 0.837
COc1cccc(CN2C(=O)CCC2(C)C(=O)NC2CCCC2)c1 (configuration not stated) | 0.72 | 1.04
CCCCSCCCNC(=O)CSCc1nc(-c2ccccc2Cl)oc1C | -2.86 | 0.565
COc1ccc(C2NCCC23C(=O)N(C)c2ccccc23)cc1 (configuration not stated) | 1.61 | 1.23
CC1CCC(NC(=O)C2(C)CCC(=O)N2Cc2ccc(F)cc2Cl)CC1 (configuration not stated) | 1.26 | 1.07
CCCCc1ccc(Nc2nc3ccccc3nc2NS(=O)(=O)c2ccc(Cl)cc2)cc1 | -0.0876 | 0.926
CCc1cc(C(=O)Cc2csc(-c3ccccc3)n2)c(O)cc1O | 0.0218 | 1.01
CC(CCc1ccccc1)NCC(O)COc1ccccc1 (configuration not stated) | 1.58 | 1.06

# More records.
canonical_smiles | CBX7 AlphaScr z-score | CBX7 AlphaScr
O=C(Cc1ccc(NC2=NC3CS(=O)(=O)CC3S2)cc1)NCCC1=CCCCC1 (configuration not stated) | -2.48 | 0.773
Cc1ccccc1-c1nc(CS(=O)(=O)CC(=O)NCc2ccccc2)c(C)o1 | 1.58 | 1.19
Cc1ccc(OCc2nc(C#N)c(N3CCCCCC3)o2)cc1 | -3.76* | 0.398*
CSCC[C@@H](C(=O)Nc1ccc(C(C)C)cc1)N1Cc2ccccc2C1=O | -1.89 | 0.933
CCc1nn(-c2cc(Cl)ccc2OC)c2c1C(=O)CC(c1ccccc1)C2 (configuration not stated) | 0.115 | 1.01
CCCNC(=O)N(C)c1nncnc1C(=O)NC | -0.331&1.38 | 0.974&1.12
Clc1ccc(-c2nc(-c3ccccn3)no2)cc1 | -0.248 | 0.974
COc1cc2c(C(=O)NCCc3ccc(Cl)cc3)cn(CC(C)C)c(=O)c2cc1OC | 0.0163 | 1.02
COc1ccc(NC(=O)COc2ccc(N3CC(C(N)=O)CC3=O)cc2)cc1 (configuration not stated) | 1.88 | 1.09
Cc1ccccc1C1CC(c2ccc(F)cc2)Nc2ncnn21 (configuration not stated) | -2.64 | 0.812
COCCNC(=O)c1nn2c(C(F)(F)F)cc(-c3ccc(F)cc3)nc2c1Cl | 0.396 | 1.06
COc1ccccc1CNC(=O)c1cn(CC(C)C)c(=O)c2c1c1ccccc1n2C | -0.294 | 0.984
COc1cc(OC)c(NC(=O)c2nn(-c3ccccc3OC)c(=O)c3ccccc23)cc1Cl | 0.712 | 1.04
Cc1ccc(C(c2ccccc2)N2CCN(CCCc3c[nH]c4ccccc34)CC2)cc1 (configuration not stated) | -11.1* | 0.488*
Cc1cc(N2CCCCC2)nc2ccc(NC(=O)c3cccnc3Cl)cc12 | -5.01 | 0.724
O=C(NCc1cccs1)c1cc(-c2ccc3c(c2)OCO3)nc2ccccc12 | 1.19 | 1.04
COCCN1C(=O)CCC1(C)C(=O)NC1CCC(C)CC1 (configuration not stated) | 1.05 | 1.05
O=C(Nc1ccccc1-c1nc2ccccc2s1)c1cccc(F)c1 | 2.08 | 1.08
COCCCNC(=O)c1c[nH]c2ccc(S(=O)(=O)Nc3cccc(OC)c3)cc2c1=O | -1.49 | 0.881
Cc1ccn2c(-c3csc(Nc4ccccn4)n3)c(C)nc2c1 | -2.51 | 0.939
CCCCn1c(C(C)NC(=O)c2cccc(C)c2)nc2ccccc21 (configuration not stated) | 0.684 | 1.06
CCOc1ccc(S(=O)(=O)c2cn(Cc3ccccc3C)c3ccc(OC)cc3c2=O)cc1 | -3.04 | 0.919
COc1ccccc1CNC(=O)CCN1C(=O)COc2ccc(C)cc21 | 0.0171 | 1
O=C(Nc1cc(Cl)cc(Cl)c1)C1CC(=O)N(c2ccc(F)cc2)C1 (configuration not stated) | -0.209 | 0.846
Cc1nc(Nc2nc3c(c(=O)[nH]2)CCC3)nc2ccccc12 | 0.198 | 1.18
Fc1ccccc1CSc1nnnn1-c1ccc2c(c1)OCO2 | 1.55 | 1.11
Fc1ccc(-c2sc(Nc3cccc(Cl)c3)nc2C(F)(F)F)cc1 | 1.26&5.37 | 1.11&1.31
CC1CCN(CCCNC(=O)C2CC(=O)N(C3CCCCCCC3)C2)CC1 (configuration not stated) | 0.0665 | 1.03
COc1cccc(C(=O)NCCc2cc3c(OC)ccc(OC)c3[nH]c2=O)c1 | 2.03 | 1.05
